Assay outcomes deposited in PubChem BioAssay by National Center for Advancing Translational Sciences (NCATS).
miR-21 reporter: raises the signal of a miR-21 reporter; AID 2288; 340,000 tested, under 10 active; Potency, µM (series often up to 38.3 µM), for the others: at the highest dose reporter change, positive = more light; HeLa miR-21 FLuc reporter, luciferase, 48 h; active = well fitted rising curve with a large enough effect; inconclusive = small, poorly fitted or top-dose-only effect; inactive = no such curve, though single readings can be large or run the other way;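 further: % of control where 0% means no effect; miR-21 action dims this reporter so a rising signal means less miR-21 action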
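HeLa cells stably expressing CMV-driven firefly luciferase with a downstream miR-21 binding sequence, endogenously expressing miR-21, were treated with titrations (up to about 40uM final) for 48 hours at 37 degree Celsius. Luciferase luminescence was read after lysis.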
An asterisk follows results filed as active; ? = inconclusive; [ ] = remark or other dose. A portion of the library; the hit share may differ from the screen's.

SMILES	miR-21 reporter
Cc1sc(NC(=O)C2c3ccccc3Oc3ccccc32)c(C(=O)OC(C)C)c1C	-1%
O=C(c1ccc(F)cc1)n1nc(-c2cccnc2)nc1NCc1ccc(F)cc1	0%
O=C(Oc1ccccc1F)c1nc(SCc2ccccc2F)ncc1Cl	1%
O=C(NC1CC(=O)N(c2ccccc2)C1)c1cc2ccccc2o1 (stereo not drawn)	-1%
Cc1ccc(C)c(NC(=O)n2ncc3cc(Cl)ccc32)c1	1%
COCCn1c(C)cc(O)c(C(c2ccccc2Cl)N2CCCCC2)c1=O (stereo not drawn)	-2%
O=C1C2=C(C(=O)c3ccccc31)C1O[C@](CCCCN3C(=O)c4ccccc4C3=O)(Cc3c1ccc1ccccc31)O2	0%[7.66 µM]
COCCCNc1oc(/C=C/c2cc(OC)c(OC)c(OC)c2)nc1C#N	10%
CCOC(=O)C1CCCN(c2c(C(=O)c3ccc(OCC)cc3)cnc3ccccc23)C1 (stereo not drawn)	0%
Cc1ccc(S(=O)(=O)n2nc(-c3ccccc3)nc2NCc2ccc(Cl)cc2)cc1	-3%
CCOC(=O)c1ccc(Nc2c(-c3ccc(O)cc3)nc3nc[nH]n23)cc1	-17%
O=S(=O)(NCC(c1ccccc1)N1CCc2ccccc21)c1ccc(Cl)cc1 (stereo not drawn)	?
COc1cc(C(=O)N(Cc2ccc(C(C)C)cc2)C2CCS(=O)(=O)C2)cc(OC)c1OC (stereo not drawn)	-3%
O=C(O)Cc1sc(Nc2ccc(C(=O)O)cc2)nc1-c1ccccc1	-17%
Cc1ccc(-n2c(SCc3cccc(F)c3)nc3[nH]ncc3c2=O)cc1C	2%

5 entries from above, in CSV form.
SMILES,miR-21 reporter
Cc1ccc(S(=O)(=O)n2nc(-c3ccccc3)nc2NCc2ccc(Cl)cc2)cc1,-3%
CCOC(=O)c1ccc(Nc2c(-c3ccc(O)cc3)nc3nc[nH]n23)cc1,-17%
O=S(=O)(NCC(c1ccccc1)N1CCc2ccccc21)c1ccc(Cl)cc1 (stereo not drawn),?
COc1cc(C(=O)N(Cc2ccc(C(C)C)cc2)C2CCS(=O)(=O)C2)cc(OC)c1OC (stereo not drawn),-3%
O=C(O)Cc1sc(Nc2ccc(C(=O)O)cc2)nc1-c1ccccc1,-17%

Fetched by compound from above, 4 records:
SMILES	miR-21 reporter
CCOC(=O)c1ccc(Nc2c(-c3ccc(O)cc3)nc3nc[nH]n23)cc1	-17%
Cc1sc(NC(=O)C2c3ccccc3Oc3ccccc32)c(C(=O)OC(C)C)c1C	-1%
O=C(c1ccc(F)cc1)n1nc(-c2cccnc2)nc1NCc1ccc(F)cc1	0%
O=S(=O)(NCC(c1ccccc1)N1CCc2ccccc21)c1ccc(Cl)cc1 (stereo not drawn)	?

The results go on.
SMILES	miR-21 reporter
CCCCNC(=O)C1CCCN(c2nnc(C)c3c(C)n(-c4ccc(Cl)cc4)nc23)C1 (stereo not drawn)	1%
O=C(Nc1ccc(F)cc1Cl)C1CCN(c2ncnc3c2nc2n3CCCCC2)CC1	-2%
CC(=O)Nc1cccc(NC(=O)Cn2cnc3c2c(=O)n(C)c(=O)n3C)c1	1%
COC(=O)C(CCSC)NC(=O)c1cc2c(n(-c3ccc(OC)cc3)c1=O)CC(C)(C)CC2=O (stereo not drawn)	-6%
Cc1ccc(C)c(NC(=O)Cn2c(=O)n(CC(=O)NCCc3ccccc3)c(=O)c3ccccc32)c1	-1%
COc1ccc2nc(NC(=O)c3cc(=O)c4cc(C)c(C)cc4o3)sc2c1	-4%
COc1cccc(NC(=O)CSc2nc(=O)n(Cc3cccnc3)c3c2CCC3)c1	-3%
COc1ccc(-c2cc(C(F)(F)F)nc(SCCC(=O)Nc3ccc(F)cc3F)n2)cc1	1%
Cc1cccc(C)c1NC(=O)c1nc(S(C)(=O)=O)ncc1N(Cc1ccc(C(C)(C)C)cc1)Cc1ccco1	1%
Cc1cccc(C)c1NC(=O)Cn1c(=O)n(Cc2ccccc2)c(=O)c2c(C)c(C(=O)N(C)C)sc21	-5%
COc1ccc2c(Sc3ccc(C)cc3)c(C(=O)NCCc3ccccc3)[nH]c2c1	-28%
O=C(Cn1c2ncccc2c(=O)n1-c1ccccc1)NCc1ccccc1Cl	2%
COc1ccccc1CNC(=O)c1ccc(CS(=O)c2ccccc2Cl)o1 (stereo not drawn)	13%
CCOc1ccc(-c2nnc(SCC(=O)Nc3cccc(OC)c3)nc2-c2ccc(OCC)cc2)cc1	1%
Cc1ccc(NS(=O)(=O)c2ccc3[nH]c4c(c3c2)CCCCCC4)cc1Cl	5%
COc1ccc(-c2nc3sc(CCNC(=O)C(=O)Nc4ccc(C)c(C)c4)c(C)n3n2)cc1	-41%
Cc1cccc(N2CCN(C(=O)c3nn(C)c4c3CSc3ccccc3-4)CC2C)c1 (stereo not drawn)	-6%
O=C(c1ccc2c(c1)N(Cc1cccc(F)c1)C(=O)c1ccccc1S2)N1CCCC1	7%
CCCn1c2ccccc2c2cnn(CC(=O)Nc3cc(C)c(Cl)cc3OC)c(=O)c21	-1%
COC(=O)c1cc2oc(C)cc2n1CC(=O)Nc1ccc(C(C)C)cc1	0%
CNS(=O)(=O)c1cn(CC(=O)Nc2ccc(C)c(N(C)C)c2)cc1S(=O)(=O)NC	-3%
COc1ccc(OC)c(CCNC(=O)c2cc3c(-c4ccccc4F)nn(C)c3s2)c1	?
COc1ccccc1N1CCN(S(=O)(=O)c2c(C)sc3ncn(CC(=O)Nc4ccc(C(C)C)cc4)c(=O)c23)CC1	3%
CCOC(=O)c1cc(-c2ccccc2)n(CCC(=O)Nc2ccccc2CC)c1C	-4%
CN(CC(=O)Nc1ccc(F)cc1F)S(=O)(=O)c1cccc2nsnc12	-4%
CN1CCc2nc3sc(C(=O)Nc4ccccc4OC(F)(F)F)c(N)c3cc2C1	9%
COc1ccc(Cl)cc1NC(=O)CCCS(=O)(=O)c1nc(-c2ccc(OC)c(OC)c2)cc(C(F)(F)F)n1	?
COc1ccc(CCNC(=O)c2ccc3c(c2)nc(C)n3-c2ccc(Br)cc2)cc1OC	0%
CCCCOc1ccc(C2=NC(c3ccccc3)=Nc3ccc(OC)cc3N2)cc1	-35%
Cc1ccc(/C=C/c2onc(C)c2S(=O)(=O)N2CCC(C(=O)Nc3ccccc3C(F)(F)F)CC2)cc1	0%
CN(C)c1ccc(NC(=O)Cn2nnc3sc4c(c3c2=O)CCC(C(C)(C)C)C4)cc1 (stereo not drawn)	-2%
COc1ccc(NC(=O)c2c(NCc3ccc(C)o3)sc3c2CCC(C)C3)c(OC)c1 (stereo not drawn)	3%
CC(C)CNS(=O)(=O)c1ccc(N2CCCCS2(=O)=O)cc1	5%
CCOc1cc(C(=O)Nc2ccc(-c3nc4ccccc4s3)cc2Cl)cc(OCC)c1OCC	-29%
CCCOc1cccc(C(=O)Nc2ccc(-c3cc4ccccc4oc3=O)c(C)c2)c1	1%
CC1CCN(C(=O)Cn2c(=O)n(-c3ccc(Cl)cc3)c(=O)c3c4c(sc32)CCC4)CC1	0%
Cc1ccc(OC(C)C(=O)N2CCN(CCc3ccccn3)CC2)cc1C (stereo not drawn)	2%
COc1cccc(NC(=O)Cn2c(=O)n(Cc3ccc4c(c3)OCO4)c(=O)c3oc4ccccc4c32)c1	0%
Cc1cc2c(c(=O)o1)C1O[C@](CCCCN3C(=O)c4ccccc4C3=O)(Cc3cc(C#N)ccc31)O2	-4%[7.66 µM]
Cc1ccc(S(=O)(=O)c2nc(S(=O)(=O)c3ccccc3)sc2NCCCOC(C)C)cc1	-1%
Cc1ccc(Cn2c(=O)n(Cc3ccco3)c(=O)c3oc4ccccc4c32)cc1	0%
CCc1ccc(-n2nc(C)c3c(C)cc(=O)n(CC(=O)N4CCCc5ccccc54)c32)cc1	4%
CCc1ccc(-n2nc(C)c3c(C(=O)Nc4ccc(Cl)cc4)cc(C)nc32)cc1	6%
CSc1ncc(C(=O)NCc2ccccc2)c(-c2ccccc2)n1	-6%
CCCCN(CCCNC(=O)c1cc(Nc2ccc(OC)c(OC)c2)nc2ccccc12)Cc1ccccc1	?
CCCCn1c(CNC(=O)c2ccc(OC)cc2)nnc1SCC(=O)Nc1ccc(OC)cc1	-2%
Cc1cc(=O)[nH]c2nnc(SCc3ccc(Cl)cc3Cl)n12	-25%
CCN(CC)c1ccc(NC(=O)CCS(=O)(=O)c2ccc3c(c2)oc(=O)n3C)c(C)c1	2%
COc1cc(NC(=O)c2oc3c(c2C)-c2nn(Cc4cccc(Cl)c4)cc2CC3)cc(OC)c1	-17%
COc1cccc(N2CCN(c3ncnc4c3nc3n4CCCCC3)CC2)c1	?
COc1cccc(N2CCN(C(=O)Cn3ncc4c5ccccc5n(C)c4c3=O)CC2)c1	-1%
Cn1nnnc1SCCCNCc1ccc(-c2ccc(Br)cc2)o1	-4%
Cc1ccc(Cl)cc1NC(=O)Cn1c(=O)n(Cc2ccccc2)c(=O)c2oc3ccccc3c21	2%
Cn1nnnc1SCCCNCc1cccc(OCc2ccc(Cl)cc2)c1	-17%
CCOC(=O)N1CCc2c(sc(NCc3cccc(F)c3)c2C(=O)Nc2ccc(OCC)cc2)C1	4%
COc1ccc(CCNC(=O)CCCn2c(=O)c3ccccc3n(Cc3ccc(C)cc3)c2=O)cc1OC	-2%
CCCCCNc1nc2c(-c3ccccc3)nnn2c2ccccc12	-1%
COc1cc(C(=O)N2CCN(c3ccc(Nc4ccc(C)cc4)nn3)CC2)cc(OC)c1OC	1%
Cc1cc(F)ccc1NC(=O)CCS(=O)(=O)c1cc2c3c(c1)CCN3C(=O)CC2	-5%
CCOC(=O)c1c(NC(=O)/C=C/c2ccc(OCC)cc2)sc(C(C)=O)c1C	-7%

Arranged by molecular weight (lowest first): 3 of the compounds above
SMILES	miR-21 reporter
Cc1cc(F)ccc1NC(=O)CCS(=O)(=O)c1cc2c3c(c1)CCN3C(=O)CC2	-5%
Cc1ccc(Cl)cc1NC(=O)Cn1c(=O)n(Cc2ccccc2)c(=O)c2oc3ccccc3c21	2%
COc1ccc(CCNC(=O)CCCn2c(=O)c3ccccc3n(Cc3ccc(C)cc3)c2=O)cc1OC	-2%

Continued.
SMILES	miR-21 reporter
CCc1nn(CC(=O)NC2CC2)c(=O)c2cc3c(OC)cccc3n12	-1%
COc1ccc(NC(=O)CN2CCCN(Cc3ccccc3)S2(=O)=O)cc1	-3%
CCOc1ccccc1NC(=O)Cn1c(=O)n(Cc2ccccc2)c(=O)c2c(C)c(C(=O)N(C)C)sc21	8%
COc1cccc(CN2CCc3nc(N4CCN(C)CC4)ncc3C2)c1	-4%
Cc1ccccc1NC(=O)Cn1cc(C(=O)c2cccs2)c2ccccc21	28%
CCCCc1ccc(NC(=O)c2ccc3c(c2)CCN3S(=O)(=O)c2ccccc2)cc1	26%
COc1ccc(C(=O)Nc2ccc(-c3nnc4n3CCCCC4)cc2)cc1	-4%
CCCSC1=NC2(CCN(C(=O)NC3CCCCC3)CC2)N=C1c1ccc(OC)cc1	5%
COC(=O)c1ccn(-c2nc(-c3ccc(Cl)cc3)cc(C(F)(F)F)n2)n1	4%
CC(Nc1oc(-c2ccc(COc3ccccc3)o2)nc1C#N)c1ccccc1 (stereo not drawn)	-9%
CCC(=O)Oc1c(Sc2ccc(Cl)cc2)c(C)nn1-c1ccccc1	16%
Cc1cccc(N2CCN(S(=O)(=O)c3ccc(F)c(C(=O)Nc4cccc(Cl)c4C)c3)CC2C)c1 (stereo not drawn)	12%
Cc1ccc(-c2cc(C(=O)N3CCN(S(=O)(=O)c4ccc(Br)cc4)CC3)[nH]n2)c(C)c1	-5%
O=c1[nH]c(SCc2cccc(Cl)c2)nc2c1CCC2	0%
COc1ccc(-c2noc(-c3nnn(-c4ccc(C(C)C)cc4)c3C)n2)cc1OC	10%
COc1ccc(OC)c(CNC(=O)CCCn2c(=O)c3cccn3c3cccnc32)c1	1%
CCOc1ccccc1CN1CCc2nc(Nc3ccccc3)ncc2C1	0%
CCOC(=O)c1ccc(N2C(=O)Cc3cc(OCC)c(OCC)cc3C2c2ccccc2)cc1 (stereo not drawn)	-7%
COc1ccc(-c2noc(-c3ccc(NCc4ccccc4OC)c([N+](=O)[O-])c3)n2)cc1	-13%
CCOC(=O)c1ccc(NC(=O)c2cnc3c(-c4ccc(F)cc4)c(C)nn3c2C)cc1	0%
CNS(=O)(=O)c1cn(CC(=O)N2CCN(c3ccc(C)cc3C)CC2)cc1S(=O)(=O)NC	8%
O=C1CC(c2ccccc2)Cc2[nH]c(=O)c(C(=O)Nc3ccc(OC(F)(F)F)cc3)cc21 (stereo not drawn)	-1%
CCCC1=Nc2cc(C(=O)NCCOC)ccc2Sc2ccccc21	28%
COc1ccc(N2CC(NC(=O)c3cc4ccccc4o3)CC2=O)cc1 (stereo not drawn)	-1%
Cc1cccc(NC(=O)C(=O)NCCc2csc(-c3ccc(F)cc3)n2)c1C	-5%
COc1ccc(CNC(=O)CCc2nc(-c3ccc(OC)cc3)no2)cc1	-23%
C=CCN=C1N[C@@H](c2ccc(Br)cc2)C(C(=O)OC)=C(C)N1Cc1ccccc1	22%
O=S(=O)(c1ccc(-c2cnc(C3CC3)o2)cc1)N1CCN(c2ccccc2F)CC1	1%
Cc1c2cnn(CC(=O)N3CCN(c4ccc(F)cc4)CC3)c(=O)c2c(C)n1Cc1ccc(F)cc1	-2%
CCc1c(C)sc2c1CCN(Cc1ccccc1C#N)C2c1ccccc1 (stereo not drawn)	?
Cc1oc2c(c(C)cc3oc(=O)c(CC(=O)NCCc4ccccc4)c(C)c32)c1C	4%
Cc1cccc(NC(=O)CSc2nc(=O)n(Cc3cccnc3)c3c2CCC3)c1	8%
